Prx2 Sm inh = Schistosoma Mansoni Peroxiredoxins (Prx2) | Schistosoma mansoni peroxiredoxin 2 (Prx2) | S. mansoni Prx2 activity coupled to TGR/GSH (TGR is thioredoxin glutathione reductase), NADPH fluorescence loss, qHTS; some inactives read as strong as hits | Potency, µM | 65,000 compounds, 0.07% hits; active means full or partial inhibition curve with a strong effect at the top dose; inconclusive means weaker partial or single-point curve; inactive means no accepted curve; note: series up to 57 µM; many of its hits are not listed in these tables
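Activity is read as the drop in NADPH fluorescence (365/450 nm), recorded every 30 sec for 8 min after H2O2 addition. Prx2 is coupled to TGR-driven NADPH oxidation through glutathione, in phosphate buffer pH 7.4.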
Anthrax LT inh = qHTS Assay for Anthrax Lethal Toxin Internalization. Potency, µM (top dose mostly 40 µM), inactives show at the highest dose activity change, negative = inhibition, hits mostly inhibitors. Cells, anthrax lethal toxin internalization, FRET ratio (460/530). 70,000 compounds, 0.67% hits. AID 912, 2007; active = well fitted falling ratio curve with the 530 nm signal flat; inconclusive = other ratio curves, or a change in one channel alone; inactive = flat curves in the ratio and both channels; the % refers to the ratio; note: % is set by controls: 0 for no effect and ±100 for the full control effect; nearly all actives have a fitted effect of over 50% in size; tested in ME-180 cells; beta-lactamase reporter
* = called active by the depositor; u = inconclusive; x = no result given; [ ] = remark or other dose. Potency is the fitted concentration of half-maximal effect. Only part of the results is shown; the hit share may differ from the screen's.

molecule,Prx2 Sm inh,Anthrax LT inh
COc1ccc(C(C)=O)c(Oc2nc(CN3CCOCC3)nc3scc(-c4cccs4)c23)c1,>57,-11%
Cc1[nH]nc2c1C(C1CC=CCC1)C(C#N)=C(N)O2 (stereo not given),x,u
Cn1c(SCC(=O)N2CCN(c3cccc(Cl)c3)CC2)nnc1-c1ccncc1,>57,3%
CCOC(=O)c1c(C)oc2cc(Br)c(OC(C)C(=O)OCC)cc12 (stereo not given),x,u
Cc1cc(OCc2nc(N)nc(N)c2-c2ccc(Cl)c(Cl)c2)ccc1[N+](=O)[O-],>57,12%[8 µM]
CCOc1cc(C2c3c(n[nH]c3C)C(=O)N2c2ccc(C)cc2)ccc1O (stereo not given),>57,-25%
CCc1ccc(-c2nc(CS(=O)CC(=O)NCc3cccnc3)c(C)o2)cc1 (stereo not given),>57,-10%
Cn1c(=O)c2c(nc(SCC(=O)Nc3ccccc3)n2C)n(C)c1=O,>57,4%
COCCCNC(=O)C1CCN(C(=O)c2cc3sccc3n2Cc2ccc(F)cc2)CC1,>57,-5%
COc1ccc2nc(NC3=NCN(CC4CCCO4)CN3)nc(C)c2c1 (stereo not given),>57,-13%
Cc1ccc2[nH]c(=O)c(C(c3nnnn3CC3CCCO3)N3CCOCC3)cc2c1 (stereo not given),>57,4%
O=C(O)c1ccc(S(=O)(=O)NC2CCCc3ccccc32)cc1 (stereo not given),>57,-9%
COc1ccc(NC(=O)CCOc2ccccc2)c(OC)c1,>57,-2%
COc1ccc(-c2nnc3ccc(SC(C(C)=O)C(C)=O)nn23)cc1OC,>57,4%
c1cnc(N2CC[N+]3(CCCC3)CC2)nc1,>57,12%
CCn1c(C)c(C(C)=O)c(NCc2ccccc2)nc1=S,>57,2%

Six records picked at random from the list so far, as already listed:
molecule,Prx2 Sm inh,Anthrax LT inh
c1cnc(N2CC[N+]3(CCCC3)CC2)nc1,>57,12%
CCn1c(C)c(C(C)=O)c(NCc2ccccc2)nc1=S,>57,2%
O=C(O)c1ccc(S(=O)(=O)NC2CCCc3ccccc32)cc1 (stereo not given),>57,-9%
COCCCNC(=O)C1CCN(C(=O)c2cc3sccc3n2Cc2ccc(F)cc2)CC1,>57,-5%
COc1ccc(NC(=O)CCOc2ccccc2)c(OC)c1,>57,-2%
Cc1ccc2[nH]c(=O)c(C(c3nnnn3CC3CCCO3)N3CCOCC3)cc2c1 (stereo not given),>57,4%

Additional records follow:
molecule,Prx2 Sm inh,Anthrax LT inh
CN1CCc2cc(O)cc3c2[C@H]1Cc1ccc(O)c(O)c1-3,>57,-15%
CCCn1c(C)nc2c(NCCCCN(C)C)nc(C)nc21,x,-2%
CN(Cc1ccco1)c1ncncc1-c1cccc(NS(C)(=O)=O)c1,>57,-5%
CC(=O)[C@@H]1[C@@H]2C(=O)N(Cc3ccccc3)C(=O)[C@@H]2C2c3ccccc3C=CN21 (stereo not given in full),>57,-26%
Cc1ccc(C(C(=O)NC2CCCC2)N(Cc2cccs2)C(=O)CNC(=O)c2cccs2)o1 (stereo not given),>57,9%
COc1ncc2nc(-c3cccs3)c(=O)n(Cc3cccs3)c2n1,>11,u
O=C1C=C(NCc2ccncc2)CC(c2ccccc2)C1 (stereo not given),x,-15%
Cc1ccc(OCc2nnc(SCc3nc4ccccc4[nH]3)n2Cc2ccco2)cc1,>57,u
O=C(O)C1CSC(c2ccccc2)N1C(=O)c1ccco1 (stereo not given),>57,-17%
CCOc1ccc(CNC(=O)NS(=O)(=O)c2ccc(OC)cc2)cc1,>57,-3%
CCN(CC)c1cc(C)c2cc(NC(=O)CNC(C)=O)ccc2n1,>57,17%
Cc1ccccc1Cn1c(=O)c2c(nc3n2CCCN3Cc2ccccc2)n(C)c1=O,>57,-3%
CC1(C)Cc2c(c(=S)nc(-c3ccccc3)n2CCCN2CCOCC2)CO1,>57,x
O=C(CSc1nncs1)NCc1ccc2c(c1)OCO2,>57,12%
CN1CCC2(CC1)Nc1nc(SCc3ccc(Cl)cc3)nn1C1=C2CN(C)CC1,>57,u
COc1cc(CNCc2ccc(OC)c(OC)c2OC)cc(OC)c1,>57,-6%
CCCc1cc(C(=O)Nc2ccccc2C(=O)OC)no1,>57,-20%
CC(C)OC(=O)CSc1nc2ncccc2[nH]1,>57,u
Cc1ccc(C2C(C#N)=C(N)SC(N)=C2C#N)o1,>57,-25%
COc1ccc2oc(C)c(C(=O)Cn3ccnc3)c2c1,>57,u
COCCn1c(=O)[nH]c2cc(C(=O)NCCc3ccc(OC)c(OC)c3)ccc2c1=O,>57,6%
COc1ccc(OC)c(-n2cc3c(=O)n(C)c(=O)n(C)c3c2)c1,>57,x
Cc1sc(NC(=O)CSc2nnc(-c3ccccc3)o2)c(C#N)c1C,>57,-15%
COCCn1c(=NC(=O)CSC(C)=O)sc2cc(F)ccc21,>57,-8%
CCOC(=O)c1c(NC(=O)c2ccco2)sc(C(=O)N2CCCC2)c1C,x,7%
O=C1c2ccccc2NC(c2ccncc2)N1c1ccccn1 (stereo not given),>57,13%
CCC(=O)Nc1ccc(NC(=O)c2cc3ccccc3o2)cc1,x,-4%
O=C(CC(=O)Nc1ccccn1)Nc1ccccn1,>57,-4%
COc1ccccc1CC(=O)NCCc1ccc(S(N)(=O)=O)cc1,>57,-1%
CS(=O)(=O)N1CCN(c2nnc(-c3ccccc3)c3ccccc23)CC1,>57,11%
Cc1cc(NC(=O)CSc2ccccc2)no1,>57,4%
CN1C(=O)C2CN(CCc3ccccc3)CNC2N(C)C1=O (stereo not given),>57,10%
CCOC(=O)COc1ccc(S(=O)(=O)NCc2ccco2)cc1,>57,11%
CCOc1ccc2[nH]c(=O)c(C(c3nnnn3CCOC)N3CCOCC3)cc2c1 (stereo not given),>57,-12%
COc1ccccc1CNc1nc2nc(C)cc(=O)n2[nH]1,>57,3%
c1ccc(-c2nnc(CSc3nc4ccccc4[nH]3)o2)cc1,>57,-8%
O=C(Nc1cccc(F)c1)c1ccc2c(c1)OCO2,>57,-10%
CCOC(=O)c1c(NC(=O)c2ccco2)sc2c1CCCC2,x,-14%
CCN(c1ccccc1)S(=O)(=O)c1ccc(Oc2ccc(-n3ccnc3)cc2)nc1,>57,6%
CC1(C)CC[C@]2(C(=O)O)CC[C@]3(C)C(=CC[C@@H]4[C@@]5(C)CC[C@H](O)C(C)(C)[C@@H]5CC[C@@]43C)[C@@H]2C1,>57,u
CC1=C(C(=O)Nc2ccccc2)C(c2ccc(C)o2)n2ncnc2N1 (stereo not given),>57,u
COc1ccc(N(C)S(=O)(=O)c2ccc3c(c2)CCC(=O)N3)cc1,>57,7%
COc1ccc(OC)c(NC(=O)CSc2nc3ccccc3c(=O)n2CCNC(C)=O)c1,>57,u
O=C(Cc1cn2ccsc2n1)Nc1cccc2cnccc12,>57,u
COc1ccc(NC(=O)CN2CCC(C(N)=O)CC2)cc1,>57,u
Cc1cc2cc(CNC(=O)c3cccs3)ccc2n1C,>57,-19%
Cc1cc2cc(C)c3nnc(SCC(=O)NCc4ccco4)n3c2cc1C,>57,-2%
CC(=O)Nc1cccc(NC(=O)c2c(-c3ccccc3Cl)noc2C)c1,>57,-7%
COCCNC(=O)CSc1nc2cc(OC)c(OC)cc2c(=O)n1Cc1ccc(OC)cc1,>57,19%
O=C(Cc1nc2ccccc2s1)c1ccc(O)cc1O,>57,4%
COc1cccc(C(=O)Nc2ccc(NC(=O)C3CC3)cn2)c1,>57,15%
CCCCOc1ccc(NC2=NC3(CCCCC3)N=C(N)N2)cc1,>57,-5%
N#Cc1cccc(NC(=O)N2CC[C@@]3(CCCN(C(=O)c4cnccn4)C3)C2)c1,>57,u
COC(=O)c1ccccc1NC(=O)CC#N,>57,x
Cc1oc(-c2ccc(Cl)cc2)nc1CN1CCCC(C(=O)NCCCN2CCCC2=O)C1 (stereo not given),>57,3%
C=CCc1c(C)nc(SC)nc1Nc1ccc(C(C)=O)cc1,x,-23%

The listing continues.
molecule,Prx2 Sm inh,Anthrax LT inh
COc1cccc(C(=O)Nc2cc(NC(=O)c3ccco3)ccc2OC)c1,>57,u
CCOC(=O)CSc1nnc(CNc2nc(-c3ccccc3)cs2)n1C,>57,-16%
CCOc1ccc(C2C(C(=O)c3ccco3)=C(O)C(=O)N2Cc2cccnc2)cc1 (stereo not given),>57,1%
CCCCCCC(=O)c1c(C)[nH]c(C(=O)OCC)c1C,>57,-13%
CCCCCC1CC(CC(=O)O)C(=O)O1 (stereo not given),>57,-2%
Cc1cc(C)cc(N2C(=O)CC(n3ccnc3)C2=O)c1 (stereo not given),>57,5%
COC(=O)c1nonc1NCn1nnc2ccccc21,>57,-15%
N#CC1=C(N)N(c2ccccc2)C2=C(C(=O)CCC2)C1c1ccsc1 (stereo not given),>57,u

(further entries)
Order of values – Prx2 Sm inh, Anthrax LT inh
Cc1c(C(=O)OCC(=O)N2CC(C)OC(C)C2)oc2ccc(Br)cc12 (stereo not given)
  >57, 8%
CC(=O)C1=C(C)OC(N)=C(C#N)C1c1ccncc1 (stereo not given)
  >57, 0%
O=C(CCn1c(=O)oc2ccccc21)N1CCc2ccccc21
  >57, u
Cc1cccc(NS(=O)(=O)c2cc(C(=O)OCC(=O)Nc3cc(C)on3)ccc2C)c1
  >57, -24%
O=C(c1cnccn1)N1CCC2(CC1)CCN(C(c1ccccc1)c1ccccc1)CC2
  >57, u
O=C(O)[C@@H]1CCCN1Cc1c[nH]c2ccccc12
  >57, 4%[8 µM]
C=C1CC[C@H]2C(C)(C)[C@H](O)CC[C@]2(C)[C@@H]1COc1ccc2ccc(=O)oc2c1
  >57, u
CC(=O)OC1c2c(ccc3ccc(=O)oc23)OC(C)(C)C1OC(=O)CC(C)C (stereo not given)
  x, 0%
c1ccc(COc2ccc(Oc3nc(N4CCCCC4)nc(N4CCOCC4)n3)nn2)cc1
  >57, u
Cc1ccc2[nH]c(=O)c(CN(Cc3ccc4c(c3)OCO4)Cc3nnnn3Cc3ccco3)cc2c1
  >57, u
CCOc1ccc2nc(NC(=O)c3ccc(S(=O)(=O)N4CCOCC4)cc3)sc2c1
  >57, -16%
CSc1nsc(NC(=O)Cc2ccccc2)n1
  >57, x
CCN1C(=O)CSc2ccc(C(=O)NC3CCCCC3)cc21
  >57, -9%
COc1cc(C(=O)N2CCC(n3cnc4cc(F)ccc43)CC2)cc(OC)c1OC
  >57, 5%
Nc1nc(C(=O)O)c(N=Nc2ccccc2)c(=O)[nH]1
  >57, -6%[8 µM]
CSCCC1NC2(C(=O)Nc3ccc(Cl)cc32)[C@@H]2C(=O)N(C3CCCC3)C(=O)[C@H]12 (stereo not given in full)
  >57, x
CCOc1ccccc1Nc1nnc(C)c(=O)[nH]1
  >57, 14%
CCOc1ncccc1C(=O)Nc1ccc(Cl)cc1
  >57, -9%
O=c1c2[nH]c3ccc(Br)cc3c2ncn1CCCn1ccnc1
  >57, -9%
On1cnnc1-c1ccccc1
  >57, -6%
COc1ccc(CNC(=O)c2cc(-c3ccccc3OC)on2)cc1
  >57, -16%
Fc1cc(F)c2nc(N3CCCCC3)sc2c1
  >57, -8%
O=C(C1CCCN(Cc2cccnc2)C1)N1CCCCC1 (stereo not given)
  >57, -3%
c1nc2sc3c(c2c2nnnn12)CCC3
  x, -10%
COc1cc(OC)c(C#N)c(S(=O)Cc2ccccc2)c1 (stereo not given)
  >57, 3%
CCOc1ccc(C(CC(=O)O)NC(=O)COc2ccccc2)cc1 (stereo not given)
  >57, -6%
Cc1cc(=O)[nH]c(SCC(=O)NCc2ccco2)n1
  >57, -11%
CCn1c(SCC(=O)OC)nc2sc3c(c2c1=O)CCC3
  >57, 3%
Cc1ccc(Cn2c(=N)n(CC(O)c3ccco3)c3ccccc32)cc1 (stereo not given)
  >57, x
O=C(NCCN1CCOCC1)c1ccc(CS(=O)(=O)c2c(Cl)cccc2Cl)o1
  >57, -2%

Complete entries from above.
Results for O=C(CCn1c(=O)oc2ccccc21)N1CCc2ccccc21 : Prx2 Sm inh: >57; Anthrax LT inh: u
Results for Cc1ccc(Cn2c(=N)n(CC(O)c3ccco3)c3ccccc32)cc1 (stereo not given) : Prx2 Sm inh: >57; Anthrax LT inh: x

(list continues)
Order of values – Prx2 Sm inh, Anthrax LT inh
CCNC(=O)c1c(O)c2ccccc2[nH]c1=O
  x, u
CCNc1ncc2nc(-c3ccccc3)c(=O)n(CCOC)c2n1
  >57, u
Cn1c(COc2ccccc2)nnc1SCCN1CCOCC1
  >57, 10%
Cc1cc(NC(=O)C2CC(c3ccc(F)cc3)=NO2)n(-c2ccccc2)n1 (stereo not given)
  >57, -26%
COc1cccc(Oc2coc3c(CN4CCOCC4)c(O)ccc3c2=O)c1
  >57, 9%
O=c1cccc2n1C[C@@H]1C[C@H]2CN2CCCC[C@H]12
  >57, u
Cc1csc2ncc(C(=O)NCc3ccc4c(c3)OCO4)c(=O)n12
  >57, -6%
COCCNC(C)C(=O)Nc1ccc(Br)cc1 (stereo not given)
  >57, -7%
COC(=O)CN1C(=O)C(O)(CC(=O)c2ccc(C)cc2)c2cc(Br)ccc21 (stereo not given)
  >57, -26%
O=C1c2ccccc2C(=O)N1c1cccc(-c2nc3ccccc3o2)c1
  x, -2%

Compound activity: PubChem, National Center for Advancing Translational Sciences (NCATS)
